2A StopGo: High Throughput Screening for Foot and Mouth Disease Virus Antivirals; human cells with a luciferase reporter of 2A StopGo recoding; control for the full effect not named in the record; Potency, µM (titrated, usually from 57.9 µM), for inactives: at the top dose signal change, negative = less light; 1.2% of 410,000 active; AID 1159524, 2015; active = well fitted falling curve with a large enough effect; inconclusive = small, poorly fitted or top-dose-only effect; inactive = no such curve, though single readings can be large or run the other way; tested in HEK293T cells; note: % is set by controls: 0 for no effect and ±100 for the full control effect; nearly all actives have a fitted effect of over 45% in size; luciferase light after 4 h
RE007 growth inh: qHTS Assay for Inhibitors of the HIV-1 protein Vpr; S. pombe RE007 Vpr strain, BacTiter-Glo ATP luminescence, 24 h; control for the full effect not named in the record; Potency, µM (titrated, usually from 92.2 µM), for inactives: at the highest dose activity change, negative = less growth; 0.21% of 360,000 active; AID 651644, 2012; active = well fitted falling curve with a large enough effect; inconclusive = small, poorly fitted or top-dose-only effect; inactive = no such curve, though single readings can be large or run the other way;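 note: % is set by controls: 0 for no effect and ±100 for the full control effect; nearly all actives have a fitted effect of over 50% in size; the assay follows cell death caused by Vpr and the record does not say whether a fall means rescue or toxicity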
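Fission yeast RE007 carrying one integrated HIV-1 vpr copy, seeded at OD 0.01 in PMG+AL medium with 23 nL pinned compound. Grown 24 h at 30 degrees; viability read by BacTiter-Glo luminescence after 5 min.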
MARV entry inh: qHTS for inhibitors of binding or entry into cells for Marburg Virus. Marburg virus pseudotyped entry inhibition, cell reporter; control for the full effect not named in the record; about a third of the inactives were read at about 46 µM. Potency, µM (series often up to 37.8 µM), without a hit: top-dose activity change, negative = inhibition, most hits filed as inhibitors. 1.8% of 300,000 active. AID 540276, 2011; active = well fitted inhibition curve with a large enough effect; inconclusive = small, poorly fitted or top-dose-only effect, or effect the other way; inactive = flat fitted curve, though single readings scatter; tested in HEK293 cells; about a fifth of its hits are not listed in these tables; note: % is set by controls: 0 for no effect and ±100 for the full control effect; luciferase read-out
Cruzain Triton: qHTS Assay for Promiscuous and Specific Inhibitors of Cruzain (with detergent). Potency, µM, without a hit: max response, negative = inhibition, actives largely listed as inhibitors. 0.43% of 200,000 active. Cruzipain (Trypanosoma cruzi), P25779. purified cruzain, Z-FR-AMC fluorescence, 0.01% Triton; active = well fitted curve in the direction sought with a large enough effect; inconclusive = small, poorly fitted or top-dose-only effect, or another doubt; inactive = no such curve, though single readings can be large; an effect the other way counts as inactive or inconclusive;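 note: plate controls were neutral wells for no effect and buffer without enzyme for full effect; nearly all actives have a fitted effect of over 40% in size; top concentration of the series not given in the record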
Target sequence (P25779 123-467 limits assumed): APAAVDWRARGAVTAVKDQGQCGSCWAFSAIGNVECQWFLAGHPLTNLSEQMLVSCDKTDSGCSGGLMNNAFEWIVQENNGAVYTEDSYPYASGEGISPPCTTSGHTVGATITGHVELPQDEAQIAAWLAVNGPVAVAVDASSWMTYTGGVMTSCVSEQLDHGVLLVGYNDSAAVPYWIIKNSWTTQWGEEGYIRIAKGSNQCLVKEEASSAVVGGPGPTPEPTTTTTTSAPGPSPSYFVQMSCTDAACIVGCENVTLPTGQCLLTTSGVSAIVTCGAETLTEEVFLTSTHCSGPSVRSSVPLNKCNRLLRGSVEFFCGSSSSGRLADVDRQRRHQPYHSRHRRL
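Detergent-containing run (0.01% Triton X-100) in acetate buffer pH 5.5 with 5 mM DTT: enzyme at 1.5 nM final, 15 min compound preincubation at room temperature, then 2 uM Z-FR-AMC substrate. Activity taken as 60 s fluorescence increase at 360/450 nm.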
SARS PLpro yeast: qHTS of Yeast-based Assay for SARS-CoV PLP; AID 485353, 2010; Potency, µM (series often up to 32.9 µM), for inactives: at the top dose activity, positive = growth rescue; S. cerevisiae expressing SARS-CoV PLpro, growth rescue; control for the full effect not named in the record; 0.19% of 330,000 active; note: 0% is about no effect; nearly all actives have a fitted effect of over 55% in size; growth read by luminescence after 48 h
Lassa entry inh: qHTS for Inhibitors of binding or entry into cells for Lassa Virus. Lassa virus pseudotype entry inhibition, cell reporter; control for the full effect not named in the record. Potency, µM (doses to about 37.9 µM), without a hit: at the highest dose activity change, negative = inhibition, hits mostly inhibitors. 1.2% of 300,000 active; active means well fitted inhibition curve with a large enough effect; inconclusive means small, poorly fitted or top-dose-only effect, or effect the other way; inactive means flat fitted curve, though single readings scatter; tested in HEK293 cells; note: % is set by controls: 0 for no effect and ±100 for the full control effect; nearly all actives have a fitted effect of over 50% in size; luciferase read-out
Cruzain noTriton: qHTS Assay for Promiscuous and Specific Inhibitors of Cruzain (without detergent). purified cruzain, Z-FR-AMC fluorescence, no detergent. 2.3% of 200,000 active. Potency, µM, for inactives: max response, negative = inhibition, actives largely listed as inhibitors. AID 1476, 2009; active = well fitted curve in the direction sought with a large enough effect; inconclusive = small, poorly fitted or top-dose-only effect, or another doubt; inactive = no such curve, though single readings can be large; an effect the other way counts as inactive or inconclusive;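 note: plate controls were enzyme without inhibitor for no effect and buffer without enzyme for full effect; nearly all actives have a fitted effect of over 40% in size; top concentration of the series not given in the record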
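Detergent-free condition (0.00005% Triton X-100) in acetate buffer pH 5.5 with DTT. 1.5 nM enzyme and compound were pre-mixed 15 min, then 2 uM Z-FR-AMC substrate added; reaction progress from fluorescence change between first and third reads (60 s).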
NS1 function inh: qHTS Assay for Inhibitors of Influenza NS1 Protein Function; S. cerevisiae slowed by influenza A NS1, growth recovery by OD600; 0.4% of 270,000 active; AID 2326, 2010; Potency, µM (doses to about 46.1 µM), without a hit: at the top dose activity, positive = more growth; note: actives are rising curves; nearly all actives have a fitted effect of over 50% in size
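Read-out: OD600 growth recovery of NS1-expressing budding yeast. Cells grown overnight at 30C in -URA glucose medium, washed, resuspended and diluted 1:100 in 2% galactose assay medium, pH 6.0. Same strain lacking NS1 served as positive control.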
* hit, by the source's call; ? = inconclusive; · = no result given; & = joins results of further samples; [ ] = another dose, or the depositor's remark. Unless noted, calls come from the whole dose curve; as a rule, active means well fitted rising curve with a large enough effect; inconclusive means small, poorly fitted or top-dose-only effect; inactive means no such curve, though single readings can be large or run the other way. Potency is the fitted concentration of half-maximal effect.

Values run as follows: 2A StopGo	RE007 growth inh	MARV entry inh	Cruzain Triton	SARS PLpro yeast	Lassa entry inh	Cruzain noTriton	NS1 function inh
> NS(=O)(=O)c1cccc(NC(=O)COc2ncnc3c2cnn3-c2ccccc2)c1
  4%	11%	?	·	1%	?	·	11%
> Cc1ccc(NC(=O)CCN2C(=O)c3ccncc3C2=O)cc1
  5%	-1%	-8%	5.6%	4%	0%	2%	5%
> CC/C(=N\NC(=O)c1ccc2c(c1)OCO2)C12CC3CC(CC(C3)C1)C2
  0%	8%	5%	1.9%	2%	?	1%	-11%
> O=C(NCc1ccc(F)cc1)c1nc(-c2cccs2)no1
  28%	-25%	-3%[46.1 µM]	·	-3%	?	·	·
> Cc1ccc(S(=O)(=O)NCc2ccccc2)cc1C(=O)N1CCCCC1
  11%	8%	·	·	1%	·	·	-4%
> Cc1cc(NS(=O)(=O)c2ccc(NC(=O)c3cc(-c4ccccc4Cl)nc4ccccc34)cc2)no1
  -4%	1%	-12%	-10%	9%	2%	-18%	?
> COC(=O)NN1C(=O)C(c2ccccc2)=C(c2ccc(Cl)cc2)C1=O
  -5%	4%	6%[46.1 µM]	·	·	13%	·	·
> Cc1nc2ccc(Cl)cc2c(=O)n1-c1cccc(Cl)c1
  -23%	-7%	?	·	24%	0%	·	18%
> COc1ccc(NC(=O)C(=O)NCCN2CCN(C(=O)C(c3ccccc3)c3ccccc3)CC2)cc1
  ?	6%	16%	-8.9%	0%	-4%	16%	7%
> Cc1ccc(C)c(N2CCN(S(=O)(=O)c3cc(C(=O)Nc4ccc(Oc5ccccc5)cc4)ccc3F)CC2)c1
  -25%	·	·	2.5%	·	12%[46.1 µM]	?	·
> Cc1csc2nc(CNC(=O)CCC(=O)O)cn12
  -17%	-9%	·	0.7%	-1%	·	-9%	2%
> CN=C1SC(CC(=O)Nc2cccc(C(F)(F)F)c2)C(=O)N1C (stereo not drawn)
  ?	-2%	-3%	-2.3%	5%	-4%	-4%	5%
> CC(=O)O/N=C(/c1nonc1N)N(C)C
  12%	-8%	0%[46.1 µM]	·	2%	-8%	·	-1%
> CCc1cc(=O)oc2cc(OC(C)C(=O)NCC(O)c3ccccc3)c(Cl)cc12 (stereo not drawn)
  -22%	-9%	·	·	7%	·	·	7%
> Cc1nn2c(=O)cc(COc3ccc(/C=C(\C#N)C(=O)Nc4ccccc4)cc3Cl)nc2s1
  2%	·	6%[46.1 µM]	1.3%	·	10%[46.1 µM]	-3%	·
> COc1ccccc1CNS(=O)(=O)c1ccc2c(c1)NC(=O)CC(=O)N2
  -10%	·	-1%[46.1 µM]	1.1%	·	9%[46.1 µM]	-15%	·
> CCN(c1ccccc1)c1ncnc2c1cnn2-c1ccc(C)cc1C
  -3%	·	·	-10%	·	?	14%	·
> CCc1nnc(NS(=O)(=O)c2ccc(NC(=O)c3ccc(Br)cc3)cc2)s1
  15%	8%	·	·	-4%	·	·	12%
> COc1ccccc1NC(=O)CN1C(=O)COc2ccc(S(=O)(=O)N3CCC(C)CC3)cc21
  36%[activator]	-8%	·	·	2%	·	·	9%
> CC1(C)C2CCC1(C)C(NCC(O)COc1ccc(C#N)cc1)C2 (stereo not drawn)
  0%	-6%	·	·	2%	·	·	-2%
> NS(=O)(=O)c1ccc(CCNC(c2ccccc2)c2ccccc2)cc1
  ?	6%	?	·	1%	-20%	·	6%
> CCc1c(C)sc2c1CCN(C(=O)Nc1ccccc1C(F)(F)F)C2c1ccccc1 (stereo not drawn)
  -21%	·	·	-5.7%	·	-18%[46.1 µM]	-12%	·
> COc1ccc(C(C)=O)cc1CSc1nnc(SCc2cc(C(C)=O)ccc2OC)s1
  -5%	8%	?	·	0%	?	·	-53%
> COc1cc(CC(=O)OCC(=O)Nc2ccc([N+](=O)[O-])cc2)cc(OC)c1OC
  -10%	-8%	19%[46.1 µM]	·	3%	4%	·	1%
> CCc1ccc(S(=O)(=O)NCc2cn3ccccc3n2)s1
  ?	0%	?	0.0%	1%	-21%	-13%	-1%
> Cc1cccc(Cn2c(=O)n(Cc3ccccc3)c(=O)c3sc4ccccc4c32)c1
  0%	·	-4%[46.1 µM]	-0.5%	·	-12%[46.1 µM]	2%	·
> COc1ccc(S(=O)(=O)N2CCOC2CNC(=O)C(=O)NCc2ccc3c(c2)OCO3)cc1OC (stereo not drawn)
  -22%	7%	0%	·	9%	-1%	·	-16%
> COc1ccc(OCCSc2nnc(CCNC(=O)c3ccc(OC)cc3)n2C)cc1
  1%	1%	5%	8.3%	1%	-40%[14.3 µM]	-5%	3%
> COc1ccccc1/C=C/C=N\N1CCN(Cc2ccccc2Cl)CC1
  -17%	-18%	-22%	-4.1%	-8%	-4%	5%	-3%
> COc1ccc(CCN2CC(C(=O)N3CCCCCC3)CCC2=O)cc1 (stereo not drawn)
  0%	-3%	4%	·	23%	-10%	·	10%
> Cc1ccc2[nH]c(=O)c(CN(C(=O)c3cccc([N+](=O)[O-])c3)C(C)(C)C)cc2c1
  -5%	5%	?	·	5%	?	·	-7%
> CCOC(=O)c1c(C)[nH]c(C)c1S(=O)(=O)N(C)CC(=O)N(C)Cc1ccccc1
  7%	-2%	·	·	22%	·	·	6%
> CCCc1cc(C(=O)N2CCCC(N3CCN(c4ccccc4F)CC3)C2)n(C)n1 (stereo not drawn)
  -21%	5%	-6%	·	-1%	-8%	·	-1%
> Nc1nc(SCc2ccccc2)ns1
  66%[activator]	-11%	?	-0.5%	-10%	?	-8%	-33%
> Cc1ccc(NC(=O)c2nc[nH]c2C(=O)N2CCN(c3ccccc3)CC2)cc1
  -13%	-12%	·	·	0%	·	·	-1%
> COc1cccc(CN(CC2CCCO2)S(=O)(=O)c2ccc(S(=O)(=O)NCC3CCCO3)cc2)c1OC (stereo not drawn)
  0%	-2%	0%	2.5%	8%	?	?	-4%
> Cc1ccc(NC(=O)Cn2cnc3c(nnn3Cc3ccc(F)cc3)c2=O)cc1
  -15%	-1%	·	·	-1%	·	·	8%
> CCCCN(CCCC)CCNC(=O)c1ccc2nc(-c3ccccc3NC(C)=O)c(=O)[nH]c2c1
  -2%	2%	?	·	0%	4%	·	·
> Cc1nnc2ccc(-c3cccc(NS(=O)(=O)c4ccccc4[N+](=O)[O-])c3)nn12
  6%	2%	-8%[46.1 µM]	·	-1%	-20%	·	·
> O=S(=O)(NCCN1CCCC1)c1cccc2cccnc12
  -11%	-9%	·	1.5%	-6%	·	-3%	-3%
> CCN1C(=O)/C(=C/c2cc(C)n(C)c2C)SC1=Nc1ccc(OC)cc1
  -22%	-3%	?	2.4%	-2%	?	?	?
> Cc1ccc(C(=O)CCC(=O)OCc2nnc(-c3ccccc3)o2)cc1
  44%[activator]	0%	9%	·	-3%	12%[46.1 µM]	·	·
> COc1ccccc1CC(=O)NC1CC1
  -12%	-17%	0%	·	19%	12%	·	-3%
> CCOc1ccc(S(=O)(=O)N2CCCC(C(=O)N3CCC(C(N)=O)CC3)C2)cc1Cl (stereo not drawn)
  0%	13%	2%[46.1 µM]	·	1%	0%	·	-35%
> CCOc1ccccc1NC(=O)NNC(=O)CCc1ccc(OC)cc1
  5%	-6%	-30%[46.1 µM]	·	21%	?	·	6%
> C/C(=N\N=C(/C)c1cccc(N)c1)c1cccc(N)c1
  72%[activator]	-1%	?	·	·	22%	·	·
> CCOC(=O)c1sc(/N=C/c2c(C)[nH]n(-c3ccccc3)c2=O)c(C#N)c1C
  ·	·	·	3.2%	3%	·	5%	-3%
> CCOC(=O)c1ccc(C(=S)N2CCCC2)cc1
  -1%	2%	12%&12%[46.1 µM]	·	-1%	-3%[46.1 µM]	·	2%
> CCc1c(C)nc2ncnn2c1N1CCCC(C(=O)NCc2ccc3c(c2)OCO3)C1 (stereo not drawn)
  0%	-5%	-17%	0.5%	-1%	0%	-6%	-3%
> CC(C)CN(C(=O)CSc1nnc(-c2cccs2)n1N)c1c(N)n(Cc2ccccc2)c(=O)[nH]c1=O
  -16%	2%	5%	·	-5%	-14%	·	·
> CC(C)OC(=O)CSc1nc2ncc(Cl)cc2[nH]1
  18%	-11%	?	1.3%	3%	-4%	10%	6%
> Nc1c(-c2ccsc2)cnc2ncnn12
  8%	4%	18%[46.1 µM]	·	3%	19%	·	·
> COCCCNC(=O)CN1C(=O)c2ccccc2C1=O
  ·	0%	3%	-0.3%	1%	15%	10%	-3%
> O=C(Nc1ccccc1)Nc1nccs1
  36%[activator]	?	0%	1.8%	2%	9%	-16%	-21%
> O=C(COc1ccc(S(=O)(=O)N2CCOCC2)cc1)NCc1ccco1
  -5%	2%	18%	·	?	2%	·	4%
> CCOc1ccc(Cn2c(O)cc(=O)[nH]c2=O)cc1
  -12%	-7%	-2%	-3.9%	5%	18%	-3%	21%
> C=CCOC(=O)C1=C(C)NC(SCC(=O)N(CC)CC)=C(C#N)C1c1ccccc1 (stereo not drawn)
  -4%	48%	?	-1.5%	-7%	?	?	19%
> Cc1cc(N)ccc1NC(=O)c1ccccc1
  25%	10%	?	0.4%	13%	0%	-4%	-7%
> Cc1c(Br)c([N+](=O)[O-])nn1CC(=O)Nc1nccs1
  -13%	20%	10%[46.1 µM]	·	0%	-7%	·	·
> Cc1cccc(NC2=NC3(CCCCC3)N=C(N)N2)c1
  -1%	-11%	?	·	·	8%	·	·

Rows were taken by chance, and some 4.6% of all compounds hit somewhere here.
